Compound activity (PubChem)
miR-21 FLuc = raises the signal of a miR-21 reporter | HeLa miR-21 FLuc reporter, luciferase, 48 h | Potency, µM (doses to about 38.3 µM), without a hit: at the highest dose reporter change, positive = more light | 340,000 tested, under 10 active | AID 2288; active = well fitted rising curve with a large enough effect; inconclusive = small, poorly fitted or top-dose-only effect; inactive = no such curve, though single readings can be large or run the other way;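 further: % of control where 0% means no effect; miR-21 action dims this reporter so a rising signal means less miR-21 action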
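Compounds were titrated across several concentrations (up to approximately 40 uM) and incubated 48 hours with HeLa miR-21-FLuc reporter cells (miR-21 target sequence downstream of FLuc, endogenous miR-21). Readout was firefly luciferase luminescence after lytic detection reagent.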
Rango dissoc inh = inhibition of RanGTP-driven Rango-importin beta dissociation | Potency, µM (doses to about 46.1 µM), for the others: at the top dose activity change, negative = inhibition | Biochemical FRET Rango-importin beta, RanGTP-induced dissociation | AID 540253 | 340,000 tested, 0.071% active | O95149+P62826; active means falling FRET ratio curve, often poorly fitted, with flat reads before Ran was added; inconclusive means other falling curves, or compound fluorescence or quenching; inactive means flat or rising ratio curve;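 further: potency means the concentration at half of the fitted maximal effect; % of control where 0% means no effect; nearly all actives have a fitted effect of over 45% in size; -100% = wells without RanGTP and RCC1; the record marks most hits as doubtful in a second field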
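Compounds sat 5 min at room temperature with 0.1 uM Rango biosensor plus 0.25 uM importin beta, then FRET pre-read. RanGTP-RCC1 (0.6 uM Ran, 2mM GTP, 0.2 uM RCC1) added for 45 min, and the CFP/YFP post-read measured blocked complex dissociation.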
Rango complex inh = Rango-importin beta binding inhibition. AID 540263. Potency, µM (series often up to 92.2 µM), for the others: at the highest dose inhibition of complex formation. Rango CFP/YFP FRET sensor + importin beta, 45 min. 340,000 tested, 0.031% active; active = rising FRET ratio curve, often small or poorly fitted; inconclusive = mostly compound fluorescence or quenching in the first reads; inactive = flat curves in all reads;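 further: potency means the concentration at half of the fitted maximal effect; 0% = DMSO wells and 100% = buffer wells lacking importin beta; nearly all actives have a fitted effect of over 15% in size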
Target sequence (Q14974 whole entry, looked up): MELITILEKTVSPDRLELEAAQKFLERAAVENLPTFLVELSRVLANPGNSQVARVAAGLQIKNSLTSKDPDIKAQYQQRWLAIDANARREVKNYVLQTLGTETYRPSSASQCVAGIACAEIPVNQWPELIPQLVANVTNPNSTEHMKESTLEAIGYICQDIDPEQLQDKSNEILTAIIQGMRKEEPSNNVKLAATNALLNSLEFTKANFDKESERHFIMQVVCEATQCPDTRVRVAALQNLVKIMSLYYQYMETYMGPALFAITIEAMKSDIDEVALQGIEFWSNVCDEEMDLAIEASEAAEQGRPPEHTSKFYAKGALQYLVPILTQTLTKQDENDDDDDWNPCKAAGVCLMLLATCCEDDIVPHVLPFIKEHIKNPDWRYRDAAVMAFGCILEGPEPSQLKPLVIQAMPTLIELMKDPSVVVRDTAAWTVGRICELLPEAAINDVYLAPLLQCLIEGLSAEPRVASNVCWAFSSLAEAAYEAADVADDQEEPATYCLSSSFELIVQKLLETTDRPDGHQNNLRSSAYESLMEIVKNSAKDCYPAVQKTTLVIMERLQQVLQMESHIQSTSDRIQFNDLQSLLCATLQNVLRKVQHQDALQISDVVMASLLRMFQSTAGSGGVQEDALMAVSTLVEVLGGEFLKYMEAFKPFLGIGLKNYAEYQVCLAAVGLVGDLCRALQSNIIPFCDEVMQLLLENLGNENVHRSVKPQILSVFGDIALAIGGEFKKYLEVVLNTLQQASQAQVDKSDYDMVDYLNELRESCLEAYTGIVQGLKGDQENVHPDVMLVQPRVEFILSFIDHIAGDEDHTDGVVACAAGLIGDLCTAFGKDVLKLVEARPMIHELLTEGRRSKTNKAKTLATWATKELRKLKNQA
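FRET biosensor Rango (snurportin 1 IBB between N-terminal EYFP and C-terminal Cerulean), 50 nM in PBS/1 mM DTT/0.02% Tween-20/0.1% BSA, preincubated 5 min RT with compound; 0.125 microM importin beta added, 45 min RT, CFP/YFP FRET ratio read.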
GLA inh pH 4.5 = alpha-galactosidase A (human) inhibition, pH 4.5 | P06280 | activity change, negative = inhibition, % at 105 µM | purified enzyme, 4-MU-alpha-Gal fluorescence, pH 4.5 | 230,000 tested, under 10 active; inconclusive = small, poorly fitted or top-dose-only inhibition, or a rising curve; inactive = flat fitted curve, though single readings scatter; no compound was filed as active;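 further: 0% = full activity with enzyme and -100% = basal without enzyme; dose as in the result columns while the protocol names 77 µM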
An asterisk follows results filed as active.

`COc1ccc(Cl)cc1C(=O)OCC(=O)Nc1sccc1C(N)=O` gave Rango dissoc inh 0% and Rango complex inh 0.5%.
`CCCCCN(C(=O)CN1CCC(Cc2ccccc2)CC1)c1c(N)n(CCCC)c(=O)[nH]c1=O` gave miR-21 FLuc -4%, Rango dissoc inh -2%, Rango complex inh 2.1% and GLA inh pH 4.5 2.
For Cc1ccc(C(=O)NCCOc2cccc3cccnc23)cc1Cl the results were miR-21 FLuc -7%, Rango dissoc inh 2%, Rango complex inh 1.4% and GLA inh pH 4.5 -5.
Screening CS(=O)(=O)N1CCc2cc(C(=O)Nc3cccc([N+](=O)[O-])c3)ccc21 returned miR-21 FLuc 6%, Rango dissoc inh 9% and Rango complex inh 2.0%.
For O=C(N/N=C/c1cc([N+](=O)[O-])ccc1O)C12CC3CC(CC(C3)C1)C2 the results were miR-21 FLuc 0%, Rango dissoc inh -9%, Rango complex inh -1.9% and GLA inh pH 4.5 -12.
`COc1ccc(-c2cccc(NS(=O)(=O)c3cc([N+](=O)[O-])c(C)c([N+](=O)[O-])c3)c2)nn1` gave Rango dissoc inh 1% and Rango complex inh 3.1%.
Screening CSc1ccc(-c2c(C#N)c(N)nc3c2CCCC3)cc1 returned miR-21 FLuc -3%, Rango dissoc inh -16%, Rango complex inh -8.3% and GLA inh pH 4.5 3.
`Nn1cnnc1N/N=C\c1ccc(-c2ccccc2[N+](=O)[O-])o1` gave miR-21 FLuc -16%, Rango dissoc inh 1%, Rango complex inh -0.4% and GLA inh pH 4.5 -2.
For Cc1oc(C(C)(C)C)cc1C(=O)N1CCN(c2ccc(C(F)(F)F)cn2)CC1 the results were miR-21 FLuc -3%, Rango dissoc inh -9%, Rango complex inh -0.4% and GLA inh pH 4.5 -6.
`CCOc1ccc(CN2CCC(C(=O)Nc3cccc(-c4ccn[nH]4)c3)CC2)cc1Cl` gave miR-21 FLuc 16%, Rango dissoc inh -3% and Rango complex inh -3.8%.
For CC1=C(C(N)=O)C(c2ccccc2)n2nc(-c3cccs3)nc2N1 (stereo not given) the results were miR-21 FLuc 3%, Rango dissoc inh -14%, Rango complex inh -0.7% and GLA inh pH 4.5 -1.
Screening O=c1c2nnn(-c3cccc(F)c3)c2ncn1Cc1ccccn1 returned miR-21 FLuc -6%, Rango dissoc inh -23%, Rango complex inh 1.7% and GLA inh pH 4.5 -12.
CN(C)/N=C/C=C1\CC/C(=C\c2ccc(Br)cc2)C1=O was read as miR-21 FLuc -5%, Rango dissoc inh 27%, Rango complex inh 6.5% and GLA inh pH 4.5 4.
Screening O=C(O)CCC(=O)NCc1ccc2[nH]c3c(c2c1)CCCC3 returned miR-21 FLuc 0%, Rango dissoc inh inconclusive, Rango complex inh inconclusive and GLA inh pH 4.5 8.
For CCOC(=O)c1c(NC(=O)CSc2ncccn2)sc2c1CCN(Cc1ccccc1)C2 the results were miR-21 FLuc 8%, Rango dissoc inh inconclusive, Rango complex inh inconclusive and GLA inh pH 4.5 -15.
`COc1cc(CNc2ccc(N3CCN(C(C)=O)CC3)cc2)ccc1OCc1ccc(F)cc1` gave miR-21 FLuc -8%, Rango dissoc inh 12%, Rango complex inh -0.6% and GLA inh pH 4.5 5.
Screening Cc1ncc(CN2CCCC(C(=O)Nc3ccc(-n4ccnc4C)cc3)C2)cn1 (stereo not given) returned miR-21 FLuc 3%, Rango dissoc inh -8% and Rango complex inh -1.0%.
Screening O=C(COc1ncnc2ccccc12)N1CCN(S(=O)(=O)c2ccccc2)CC1 returned miR-21 FLuc 1%, Rango dissoc inh -17%, Rango complex inh 1.1% and GLA inh pH 4.5 1.
CNC(=O)COC(=O)CCC(=O)c1ccc(Cl)cc1 was read as miR-21 FLuc 0%, Rango dissoc inh 11%, Rango complex inh -6.8% and GLA inh pH 4.5 -2.
Screening Cc1c(C)c2cccnc2c2ncccc12 returned Rango dissoc inh 9% and Rango complex inh -0.3%.
For O=C(O)c1cccc(CSc2ncn[nH]2)c1 the results were miR-21 FLuc -19%, Rango dissoc inh -7%, Rango complex inh 4.3% and GLA inh pH 4.5 8.
For Cc1cc(C(=O)Nc2ccccn2)cs1 the results were miR-21 FLuc -17%, Rango dissoc inh 2%, Rango complex inh 7.9% and GLA inh pH 4.5 4.
For O=C(N/N=C/c1cccs1)c1[nH]ncc1Br the results were miR-21 FLuc -51%, Rango dissoc inh 9% and Rango complex inh -1.2%.
For O=C(CCC1CCCN(Cc2ccc3c(c2)OCCO3)C1)NCc1ccccc1F (stereo not given) the results were miR-21 FLuc -3%, Rango dissoc inh 7%, Rango complex inh 0.8% and GLA inh pH 4.5 -6.
For Nc1c([N+](=O)[O-])c(=O)sc2ccccc12 the results were miR-21 FLuc -5%, Rango dissoc inh -11%, Rango complex inh 0.7% and GLA inh pH 4.5 -2.
Screening COc1ccc(OC)c(NC(=O)C2CCN(c3nc(C)cc(C)n3)CC2)c1 returned miR-21 FLuc -2%, Rango dissoc inh -5%, Rango complex inh -1.3% and GLA inh pH 4.5 -8.
Screening CCN(CC(=O)Nc1ccc(NC(C)=O)cc1)C(=O)c1ccc(NC2CC2)c([N+](=O)[O-])c1 returned Rango dissoc inh 1% and Rango complex inh 0.1%.
Screening CCC(CCC(=O)Nc1cccc([N+](=O)[O-])c1)C(=O)O (stereo not given) returned miR-21 FLuc -1%, Rango dissoc inh -2%, Rango complex inh -4.9% and GLA inh pH 4.5 -9.
Screening COCCn1cnc2c1c(=O)n(Cc1ccc(C#N)cc1)c(=O)n2Cc1ccccc1 returned miR-21 FLuc 1%, Rango dissoc inh 13% and Rango complex inh -0.2%.
For CC(=O)NCCC(=O)N(Cc1ccccc1)c1nc2c(C)cccc2s1 the results were miR-21 FLuc -6%, Rango dissoc inh 0% and Rango complex inh 5.1%.
Screening O=C1CN(C(=O)COc2ccc(F)cc2Br)c2ccccc2N1 returned miR-21 FLuc -36%, Rango dissoc inh -13%, Rango complex inh -0.7% and GLA inh pH 4.5 23.
Screening Cc1c(NC(=O)c2cccc(F)c2)c(=O)n(-c2ccccc2)n1C returned miR-21 FLuc -1%, Rango dissoc inh -17%, Rango complex inh -3.5% and GLA inh pH 4.5 8.
COc1cc(NC(=S)NCCN2CCOCC2)cc(OC)c1OC was read as miR-21 FLuc 1%, Rango dissoc inh 6%, Rango complex inh -2.1% and GLA inh pH 4.5 6.
For COc1ccc(N2C(=O)C3CCCN3C2c2ccccc2)cc1 (stereo not given) the results were miR-21 FLuc -7%, Rango dissoc inh -23%, Rango complex inh -2.7% and GLA inh pH 4.5 4.
`O=C(NC(=S)N1CCCC1)c1ccccc1Cl` gave miR-21 FLuc -2%, Rango dissoc inh -1% and Rango complex inh -1.3%.
`Cn1nc(OC(=O)Nc2cccc(Cl)c2)cc1C(F)(F)F` gave miR-21 FLuc -11%, Rango dissoc inh -8%, Rango complex inh -2.7% and GLA inh pH 4.5 1.
For CC1(C)N=C(N)N=C(N)N1c1cccc(C#N)c1 the results were Rango dissoc inh 1% and Rango complex inh 1.0%.
Screening S=C(NCCc1ccccc1)N/N=C/c1cccc(Cl)c1Cl returned miR-21 FLuc -2%, Rango dissoc inh 11%, Rango complex inh 0.6% and GLA inh pH 4.5 2.
For Cc1occc1-c1nnc(SCC(=O)Nc2ccccn2)o1 the results were miR-21 FLuc -3%, Rango dissoc inh -14%, Rango complex inh 0.2% and GLA inh pH 4.5 1.
`c1ccc(N2CCN(c3ccccc3)C2c2ccncc2)cc1` gave miR-21 FLuc -5%, Rango dissoc inh -8%, Rango complex inh -2.4% and GLA inh pH 4.5 3.
For COc1ccc(-n2c(SCC(=O)N/N=C/c3ccccc3OCC(=O)O)nc3ccccc3c2=O)cc1 the results were miR-21 FLuc -1%, Rango dissoc inh 49%, Rango complex inh -4.5% and GLA inh pH 4.5 -10.
`COc1ccc(C(=O)NCC(=O)OCc2ccc(Cl)cc2Cl)cc1OC` gave Rango dissoc inh -12% and Rango complex inh -3.5%.
Screening O=P(Cc1cccc2ccccc12)(c1ccccc1)c1ccccc1 returned Rango dissoc inh 1% and Rango complex inh 5.2%.
Screening CC(C)c1ccc(NC(=O)CSc2nc3c(c(=O)[nH]2)CCC3)cc1 returned miR-21 FLuc -8% and GLA inh pH 4.5 3.
Screening CCn1c(N2CCN(C(=S)Nc3ccc(OC)cc3)CC2)nc2ccccc21 returned miR-21 FLuc 0%, Rango dissoc inh 0%, Rango complex inh 2.3% and GLA inh pH 4.5 -4.
For CCCC[C@H]1COCCS(=O)(=O)N1Cc1cccc(F)c1 the results were miR-21 FLuc 0%, Rango dissoc inh -4% and Rango complex inh 0.2%.
For CCC(Sc1nc(-c2cccc(OC)c2)c(C#N)c(=O)[nH]1)C(=O)Nc1nnc(C(C)C)s1 (stereo not given) the results were miR-21 FLuc 0%, Rango dissoc inh 40%, Rango complex inh -4.1% and GLA inh pH 4.5 -24.
Screening Cc1ccc(SCCNC(=O)/C=C/c2cccc([N+](=O)[O-])c2)cc1 returned miR-21 FLuc -5%, Rango dissoc inh -2%, Rango complex inh -2.2% and GLA inh pH 4.5 -11.

2 records drawn at random from those above:
Screening S=C(NCCc1ccccc1)N/N=C/c1cccc(Cl)c1Cl returned miR-21 FLuc -2%, Rango dissoc inh 11%, Rango complex inh 0.6% and GLA inh pH 4.5 2.
Screening CC(C)c1ccc(NC(=O)CSc2nc3c(c(=O)[nH]2)CCC3)cc1 returned miR-21 FLuc -8% and GLA inh pH 4.5 3.

Next part
Screening CCOCCCNC(=O)CSc1nnc(-c2ccc(S(=O)(=O)N3CCCC3)cc2)n1C returned miR-21 FLuc 1%, Rango dissoc inh 4% and Rango complex inh -3.4%.
For Cc1ccc(C2OCC3(CO2)COC(c2ccc(C)cc2)OC3)cc1 (stereo not given) the results were miR-21 FLuc -9%, Rango dissoc inh -2%, Rango complex inh 4.3% and GLA inh pH 4.5 -1.
Cc1ccc(C(=O)N/C(=C\c2ccc(-c3ccc([N+](=O)[O-])cc3)o2)C(=O)NC2CCS(=O)(=O)C2)cc1 (stereo not given) was read as miR-21 FLuc 17%, Rango dissoc inh inconclusive, Rango complex inh inconclusive and GLA inh pH 4.5 -10.
`Cc1ccc2nc(Cl)c3cc(C(=O)N(CCN(C)C)Cc4ccco4)sc3c2c1` gave miR-21 FLuc -1%, Rango dissoc inh 1%, Rango complex inh 4.6% and GLA inh pH 4.5 3.
`CCCCNC(=O)CCSc1nc2nc(C)cc(C)n2n1` gave miR-21 FLuc 0%, Rango dissoc inh 8%, Rango complex inh -0.7% and GLA inh pH 4.5 1.
Screening O=C(O)c1ccc2c3c(cccc13)C(=O)N(c1cccc3ccccc13)C2=O returned miR-21 FLuc 3%, Rango dissoc inh 6%, Rango complex inh 0.6% and GLA inh pH 4.5 2.
CC(=O)Nc1nnc(SCC(=O)N2CCN(Cc3ccccc3)CC2)s1 was read as miR-21 FLuc -7%, Rango dissoc inh 3%, Rango complex inh 0.1% and GLA inh pH 4.5 -10.
CCOc1cc(CNc2ccc(Br)cc2)cc(Br)c1OCC(=O)NC(C)(C)C was read as miR-21 FLuc 15%, Rango dissoc inh -10%, Rango complex inh -1.8% and GLA inh pH 4.5 -8.
For CN(Cc1nc2ccccc2[nH]1)C(=O)C1CCC(=O)N(CCc2cccc(F)c2)C1 (stereo not given) the results were miR-21 FLuc -2%, Rango dissoc inh 1% and Rango complex inh 2.8%.
CS(=O)(=O)N(CC(=O)N1CCCC1)c1cccc(Cl)c1Cl was read as miR-21 FLuc -2%, Rango dissoc inh -9%, Rango complex inh -4.4% and GLA inh pH 4.5 -4.
COc1ccc(-n2nc(C(=O)NCC(=O)N3CCN(Cc4ccccc4)CC3)c3ccccc3c2=O)c(OC)c1 was read as miR-21 FLuc -1%, Rango dissoc inh -5% and Rango complex inh -1.7%.
O=C(/C=C/c1ccco1)c1ccccc1O was read as miR-21 FLuc -1%, Rango dissoc inh -4%, Rango complex inh -2.5% and GLA inh pH 4.5 -2.
`Cc1ccc(CC(=O)Nc2ccc(OC(F)F)c(Cl)c2)cc1C` gave miR-21 FLuc -4%, Rango dissoc inh 29%, Rango complex inh 0.9% and GLA inh pH 4.5 -3.

A portion of the library; the hit share may differ from the screen's.
